Vaccinia mCherry: qHTS for Stage-Specific Inhibitors of Vaccinia Orthopoxvirus: mCherry Reporter Primary qHTS. Vaccinia virus mCherry reporter infection, fluorescence; about a quarter of the inactives have no number. Potency, µM (doses to about 36.5 µM), inactives show top-dose activity change, negative = inhibition, most hits filed as inhibitors. 0.63% of 310,000 active; active = well fitted inhibition curve with a large enough effect; inconclusive = small, poorly fitted or top-dose-only effect; inactive = no such curve, though single readings can be large or run the other way; tested in A549 cells; also: nearly all actives have a fitted effect of over 35% in size; inactives centre near -10
Vaccinia Venus: qHTS for Stage-Specific Inhibitors of Vaccinia Orthopoxvirus: Venus Reporter Primary qHTS | Vaccinia virus Venus reporter expression, fluorescence | Potency, µM (highest dose often 36.5 µM), inactives show at the top dose activity change, negative = inhibition, hits mostly inhibitors | 0.46% of 330,000 active; active means well fitted inhibition curve with a large enough effect; inconclusive means small, poorly fitted or top-dose-only effect; inactive means no such curve, though single readings can be large or run the other way; tested in A549 cells; also: nearly all actives have a fitted effect of over 30% in size; inactives centre near -10
Starred values were filed as active, the others as inactive; i = inactive; ? = inconclusive; / = no result given; & = joins results of further samples; [ ] = remark or other dose. % is scaled to controls: 0 for no effect and ±100 for the full control effect; potency is read from the fitted curve at half-maximal effect.

compound,Vaccinia Venus,Vaccinia mCherry
O=S(=O)(c1ccc2c(c1)OCCO2)N1CCNCC1,-6%,-10%
O=C(CSc1ccccn1)Nc1ccc2c(c1)OCO2,-3%,2%
CCc1ccc(NC(=O)Cn2c(=O)ccc3cc(S(=O)(=O)N4CCCC4)ccc32)cc1,-9%,-11%
CCc1ccc(-n2c(SCc3ccccc3C)nc3[nH]ncc3c2=O)cc1,-21%,-22%
COC(=O)c1c(C)oc(C)c1S(=O)(=O)Nc1ccc(C(C)C)cc1,-7%[7.34 µM],-30%[7.34 µM]
O=C(CSc1nc2ccccc2c(=O)n1CCCN1CCOCC1)Nc1ccc(Br)cc1,-5%,-3%
COc1ccc(-c2c(C)nn3c(N4CCC(C(=O)NCCC(C)C)CC4)cc(C)nc23)cc1OC,-17%,-18%
COc1ccccc1S(=O)(=O)Cc1ccc(C(=O)NCc2ccc(Cl)cc2)o1,0%,-13%
COc1cccc(/C=N/n2c(N)nc3ccccc32)c1OC,?,?
Cc1cccc(C2Nc3ccccc3C(=O)N2NC(=O)c2ccc([N+](=O)[O-])cc2)n1 (stereo not given),-11%,-11%
Cc1cc(SCCOc2ccccc2)nc(N)n1,-16%,-19%
CC(C)NCC(O)COc1ccc(COCCOC(C)C)cc1 (stereo not given),-12%,i
CCS(=O)(=O)c1ccc2c(c1)N(S(C)(=O)=O)CC(C(=O)NCc1ccccc1OC)O2 (stereo not given),-11%,-11%
CCCCOC(=O)CCN1C(=O)/C(=C2\SC(=S)N(CCC(=O)OCCCC)C2=O)SC1=S,33%[activator],36%[activator]
O=c1c2[nH]c3ccccc3c2nc(SCc2ccccc2F)n1-c1ccc(F)cc1,-15%,-12%
O=c1c2ccccc2[nH]c2ccccc12,0%,-4%
COc1ccc(OC)c(CN2CCN(C(=O)CCNC(=O)c3ccc(Br)cc3)CC2)c1,-4%,-11%
O=C(Nc1nc2ccccc2[nH]1)c1cccc(S(=O)(=O)N2CCOCC2)c1,-17%,13%
CN(C)Cc1cc(CCNC(=O)c2ccc(Cl)cc2)ccc1O,11%,/
NC(=O)c1ccccc1OCC(=O)c1ccc(Cl)cc1,-13%,-10%
COCCN(C(=O)C1CC1)c1nnc(-c2cccc(C)c2)s1,-16%,-18%
O=C1CN(c2nc(-c3ccccc3)c3ccccc3n2)c2ccccc2N1,-24%,-5%
COc1ccc(C(=O)Oc2ccc3c(C)cc(=O)oc3c2C(C)=O)cc1,-5%,i
N#CCC(=O)Nc1ccc(C(=O)NCc2ccccn2)cc1,-7%,i
COc1cccc(NCc2nnc3n2CCCCC3)c1,14%,4%
Cc1ccc(NC(=O)Cn2c(=O)c(C(F)(F)F)nc3ccccc32)cc1C,2%,-4%
CCOc1ccc(NC(=O)CN2CCN(CC(=O)Nc3ccc(N(CC)CC)cc3)CC2)cc1,-9%,-23%
Cc1cc2cc(CCNS(=O)(=O)c3ccc(Br)cc3)c(=O)[nH]c2cc1C,-29%,?
CCOc1ccc(NC(=O)c2cccnc2C(=O)O)cc1,-17%,-16%
CCOc1ccccc1NC(=O)NCc1ccc2c(c1)CCN2C(=O)c1ccccc1,?,?
CCOc1ccc(NC(=O)CC2C(=O)N(c3ccc(F)cc3)C(=O)N2Cc2ccc(OC)c(OC)c2)cc1 (stereo not given),-1%,3%
COc1ccccc1NC(=O)C(=O)NCCCN1CCCC1=O,-8%,-9%
CC(C)C(NC(=O)C1CCCCC1)C(=O)NC1=NCCS1 (stereo not given),-9%,-12%
COc1ccccc1OCC(=O)NCc1cccs1,-10%,-9%
CCOc1ccc(NC(=O)C(=O)NCCN2CCN(C(=O)c3ccc(C)cc3)CC2)cc1,-12%,i
Cc1cccc(C)c1OCC(O)CN1CCN(c2ccccn2)CC1 (stereo not given),-9%,i
CCOC(=O)C1=C(COC(=O)[C@@H](NC(=O)c2cccc(C)c2)C(C)C)NC(=O)NC1C (stereo not given in full),-8%,i
O=C(C1CCCN(S(=O)(=O)c2cccc3nsnc23)C1)N1CCN(c2ccccc2F)CC1 (stereo not given),-9%,-11%
COc1ccc(C2CC(c3ccccc3)=NN2C(=O)CSc2ncn[nH]2)cc1 (stereo not given),-10%,-1%
COC(=O)c1cc(-c2ccccc2)sc1N,-19%,-9%
CC(C)Oc1ccc(-c2cc(=O)[nH]c(=O)[nH]2)cc1,-22%,/
O=C(COc1ccccc1[N+](=O)[O-])Nc1cccc(-c2nc3ccccc3s2)c1,-20%,-12%
CCCCCCCCCOC(=O)C1N2C(=O)[C@@H](NC(=O)COc3ccccc3)[C@H]2SC1(C)C (stereo not given in full),-1%&-22%,-4%&-2%
COC1=C(Nc2ccc(OC)cc2)C(=O)C(OC)=C(Nc2ccc(OC)cc2)C1=O,1%,-10%
CC(=Nc1ccccc1)C1=C(O)CC(C)(C)CC1=O,3%,0%
COc1ccc(CCNC(=O)c2coc3ccccc3c2=O)cc1OC,-12%,?
COc1ccc(C(=O)Nc2cnn(Cc3ccc(Cl)cc3)c2)cc1OC,?,?
CCNC(=S)Nc1nc2c(cc1C(=O)OCC)CCCC2,-14%,-12%
Cc1ccc(Oc2ncccc2/C=N/OCc2ccc(Cl)cc2Cl)cc1,-21%,/
Cc1nn(-c2nnc(NC3CCCCC3)nn2)c(C)c1Br,-19%,-22%

The list continues:
compound,Vaccinia Venus,Vaccinia mCherry
COc1ccc(Br)cc1/C=N/N1CCN(Cc2ccccc2Cl)CC1,0%,-8%
Cc1ccc(C(c2nnnn2CCc2ccccc2)N2CCSCC2)cc1 (stereo not given),-8%,-20%
O=c1ccnc(Sc2ncccc2[N+](=O)[O-])[nH]1,-15%,/
O=C(CCc1nc2ccccc2c(=O)[nH]1)NNC(=O)COc1ccc(Br)cc1,-13%,-22%
O=S(=O)(NCc1csc(-c2cccs2)n1)c1ccccc1,-8%[7.34 µM],i[7.34 µM]
O=C(NCc1ccc(F)cc1)C(=O)Nc1nc(C23CC4CC(CC(C4)C2)C3)cs1,-16%,-23%
O=c1[nH][nH]c2ccccc2c1=O,-9%,i
O=C(NCCC1=CCCCC1)C1CCCN(S(=O)(=O)c2ccc(F)cc2)C1 (stereo not given),-16%,-15%[1.46 µM]
COc1ccc(CNC(=O)c2ccc3c(=O)n(-c4ccccc4)c(=O)[nH]c3c2)cc1,0%,-4%
CCN1CCN(c2ncnc3c2sc2nc(N4CCOCC4)c4c(c23)CCC4)CC1,-13%,/

As a short view, some entries already given.
compound,Vaccinia Venus,Vaccinia mCherry
O=C(CCc1nc2ccccc2c(=O)[nH]1)NNC(=O)COc1ccc(Br)cc1,-13%,-22%
O=S(=O)(NCc1csc(-c2cccs2)n1)c1ccccc1,-8%[7.34 µM],i[7.34 µM]
O=C(NCc1ccc(F)cc1)C(=O)Nc1nc(C23CC4CC(CC(C4)C2)C3)cs1,-16%,-23%
O=c1[nH][nH]c2ccccc2c1=O,-9%,i
O=C(NCCC1=CCCCC1)C1CCCN(S(=O)(=O)c2ccc(F)cc2)C1 (stereo not given),-16%,-15%[1.46 µM]
COc1ccc(CNC(=O)c2ccc3c(=O)n(-c4ccccc4)c(=O)[nH]c3c2)cc1,0%,-4%
CCN1CCN(c2ncnc3c2sc2nc(N4CCOCC4)c4c(c23)CCC4)CC1,-13%,/

Later entries.
compound,Vaccinia Venus,Vaccinia mCherry
COc1ccc(CSCC(=O)Nc2ccc(S(=O)(=O)N3CCCCCC3)cc2)cc1,-15%,-28%
O=C(N/N=C/c1ccc2c(c1)OCO2)c1cccc2ccccc12,-20%,?
CCOc1ccc(N(CC(=O)NCc2ccco2)C(=O)CCC(=O)Nc2ccccn2)cc1,-6%,i
COc1ccccc1C1CN(CCNC(=O)[C@@H]2CSC(=O)N2)Cc2ccccc2O1 (stereo not given in full),-7%,-8%
Cc1nc2ccccc2n1C1CCN(CC(=O)Nc2ccccc2Br)CC1,?,?
CCOC(=O)C(=O)N1CCC(C(=O)OCC)CC1,-9%,-2%
CCS(=O)(=O)N1CCC(C(=O)Oc2ccc(C(=O)OC)cc2)CC1,-13%,-14%
CC1(C)CC(=O)C/C(=N/NC(=O)COc2ccc(Cl)cc2Cl)C1,-13%,-15%
O=C1CSC(c2cccc([N+](=O)[O-])c2)N1Cc1ccccc1 (stereo not given),-16%,-15%
O=C1CC(c2cccc(Cl)c2)c2cc3c(cc2N1)CCC3 (stereo not given),?,?
Cc1nc2cc(OCc3cc(C(=O)NC(C)c4cn(C)nc4C)no3)ccc2s1 (stereo not given),-17%,i
CC(C)NC(=O)c1ccc(CS(=O)(=O)c2ccc(Br)cc2)o1,-7%,-9%
O=P(c1ccccc1)(c1ccccc1)C(c1ccccn1)P(=O)(c1ccccc1)c1ccccc1,-16%,i
CCOc1ccc(NC2=C(OC)C(=O)c3ccccc3C2=O)cc1,3%,0%
COc1cccc(C2C(C(=O)c3ccco3)=C(O)C(=O)N2CCCN2CCOCC2)c1OC (stereo not given),-19%,i
Nc1ncnc2c1ncn2[C@@H]1O[C@H](CN2CCCS2(=O)=O)[C@@H](O)[C@H]1O,0%,i
Cn1cccc1C(=O)OCC(=O)NC1CCS(=O)(=O)C1 (stereo not given),-4%,-8%
O=C(O)C1C2c3ccccc3C(c3ccccc32)C1C(=O)Nc1ccccc1 (stereo not given),-9%,i
Cc1cccc(NCc2ccc(N(C)C)cc2)n1,-2%,-18%
COC(=O)c1ccccc1N=Nc1c(N)[nH][nH]c1=O,0%,i
Cc1cc(-c2ccccc2C(=O)NC2CCCCC2)on1,6%,i
CCC(=O)Nc1cccc(NC(=O)c2ccc(Br)cc2)c1,-8%,i
COc1ccc(CC(=O)N(Cc2ccccc2)c2ccc(C)cc2)cc1S(=O)(=O)N1CCOCC1,-26%,-15%
CCCCCc1nnc(NC(=O)c2cccc(S(=O)(=O)N3CCOCC3)c2)s1,-3%,-22%
C=CCOC(=O)c1ccccc1C(=O)OCC=C,-1%,-5%
O=C(NC(c1ccccc1)c1ccccc1)c1cccc(S(=O)(=O)NCc2ccccc2)c1,?,?
CCC(=NCCc1ccccc1)c1c(O)[nH]c(=O)[nH]c1=O,-16%,-11%
O=c1c2cnn(-c3ccc(F)cc3)c2ncn1Cc1cccnc1,-19%,/
O=C(COc1ccc(Cl)cc1)NCC(c1cccs1)S(=O)(=O)c1ccc(F)cc1 (stereo not given),-7%,-15%
O=C(NCCCl)Nc1ncn[nH]1,0%,i
CCCC(=O)Nc1ccc(OCC(=O)OC)cc1,-4%,-12%
COc1c(Br)cc(Br)cc1C(=O)Nc1ccccc1N1CCCC1,-2%,i
COc1cccc(Nc2nc(-c3ccccc3)nc3ccccc23)c1,-19%,-4%
O=C(Cc1ccccc1)NC(NCCCN1CCOCC1)(C(F)(F)F)C(F)(F)F,-16%,/
CC1(C(=O)NS(=O)(=O)c2ccc3ccccc3c2)CCN1C(=O)CC1CCCCC1 (stereo not given),3%,14%
O=C(NC1CCc2ccccc21)C1CCN(S(=O)(=O)c2ccc(-n3cnnn3)cc2)CC1 (stereo not given),-13%,-14%
S=C(NCCc1ccccn1)Nc1cc(Cl)cc(Cl)c1,0%,-14%
CC1(C)CC(=O)C2=C(C1)Nc1ccccc1NC2c1ccc(F)cc1 (stereo not given),-14%,-25%
CCc1ccc(/C(C)=N/NC(=O)C(O)c2ccccc2)s1 (stereo not given),-14%,-22%
Cc1ccc(CN2CCc3nnc(C(C)NC(=O)c4cc(F)ccc4F)n3CC2)o1 (stereo not given),0%,i
CCC(=O)N1C(Cc2ccccc2)COC1(C)C (stereo not given),2%,-8%
Cc1ccc(CNC(=O)c2ccc3c(c2)c(C)c(C)n3Cc2ccc(Cl)cc2)o1,-25%,-27%
CC1CCN(C(=O)CSc2n[nH]c(-c3cccs3)n2)CC1,-3%,-15%
COC(=O)[C@@]1(Sc2ccc(C)cc2)CC(=O)N[C@@H]1c1ccc(C(F)(F)F)cc1,-10%,-12%
O=C(Cc1ccc(-c2ccccc2)cc1)NCc1ccccc1,?,?
O=C(CN1CCN(S(=O)(=O)c2ccc(Br)s2)CC1)NCC1CCCCC1,-23%,i
COC(=O)c1c(NC(=O)CSc2ccccc2N)sc(C)c1C,-15%,-15%
Cc1ccc(OCC(=O)Nc2ccc(S(=O)(=O)Nc3cc(C)on3)cc2)c(Br)c1,-12%,-15%
Cc1ccc(NS(=O)(=O)c2cccc(C(=O)O)c2)cc1S(=O)(=O)N1CCOCC1,-16%,i
CC(O)(CC(=O)CC(=O)c1ccccc1)c1ccccc1 (stereo not given),-24%,-3%
Cc1ccc(-c2nc3ccccc3o2)cc1NC(=O)C(C)Oc1ccccc1 (stereo not given),-20%,4%
O=C(CNC(=O)c1ccc2c(c1)OCO2)NCc1cccs1,2%,i

Bioassay records deposited in PubChem BioAssay by National Center for Advancing Translational Sciences (NCATS).

Hits appear at their usual frequency (roughly 0.86% active in at least one column).
